High-throughput results: PubChem, Broad Institute
Yeast UUG start – modulators of start codon recognition fidelity in yeast; activity score, % at 18.7 µM; S. cerevisiae UUG-firefly luciferase reporter, luminescence/redox ratio; 350,000 compounds, 0.13% hits;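 active = replicate mean at a twofold rise or more, about +100% in these data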;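 note: firefly luciferase made from a UUG start codon reports start codon fidelity; reporter light over untreated wells divided by growth signal over untreated wells; some hits fall short of that in this replicate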
Env fusion inh – blocks HIV Env-driven cell-cell fusion; HeLa-JRFL Env/CEM21 cell fusion, luciferase; inhibition, % at 12.3 µM; 360,000 compounds, 1.1% hits;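 active = mean replicate inhibition score of at least 50 and every replicate individually at or above 50; inconclusive = only one of the two criteria met; inactive = mean below 50 and not all replicates reaching 50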;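 note: 0% = plate neutral controls and 100% = maraviroc near 300 nM; one replicate is shown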
Numbers without * were called inactive; ? = inconclusive; [ ] = another dose, or the depositor's remark. This is a subset; rates above refer to the full screens.

Yeast UUG start | Env fusion inh | SMILES
-3 | ? | C[C@H](CO)N1C[C@H](C)[C@H](CN(C)S(=O)(=O)c2cccs2)Oc2ccc(NC(=O)CCC(F)(F)F)cc2CC1=O
11 | -15[16.7 µM] | Cc1noc(C)c1NC(=O)Nc1ccc2c(c1)C(=O)N([C@@H](C)CO)C[C@H](C)[C@@H](CN(C)Cc1ccc(Cl)c(Cl)c1)OCCCC[C@@H](C)O2
-11 | 12[16.7 µM] | COc1ccc(NC(=O)Nc2ccc3c(c2)C(=O)N([C@H](C)CO)C[C@H](C)[C@H](CN(C)C(=O)Nc2ccc(OC)cc2)O3)cc1
13 | -2[16.7 µM] | C[C@@H]1CN([C@H](C)CO)C(=O)c2cc(NS(=O)(=O)c3cn(C)cn3)ccc2O[C@@H](C)CCCCO[C@@H]1CN(C)Cc1ccc(C(=O)O)cc1
-8 | 9[16.7 µM] | Cc1ccc(S(=O)(=O)N(C)C[C@@H]2OCCCC[C@H](C)Oc3ccc(NS(=O)(=O)c4ccc(F)cc4)cc3C(=O)N([C@@H](C)CO)C[C@@H]2C)cc1
-1 | 3[16.7 µM] | CN(C)Cc1cn(CC[C@@H]2CC[C@@H](NS(=O)(=O)c3ccc(-c4ccccc4)cc3)[C@H](CO)O2)nn1
-17 | 10[16.7 µM] | COc1ccc(S(=O)(=O)Nc2ccc3c(c2)C(=O)N([C@@H](C)CO)C[C@@H](C)[C@H](CN(C)C(=O)Nc2ccc(C(F)(F)F)cc2)OCCCC[C@@H](C)O3)cc1
10 | 6[16.7 µM] | CN(C)CC(=O)N1[C@H](CO)[C@H](c2ccc(-c3cccc(C(=O)N(C)C)c3)cc2)[C@@H]1C#N
-5 | 9[16.7 µM] | COc1cccc(S(=O)(=O)N(C)C[C@@H]2Oc3ncc(-c4cccc(C(=O)N(C)C)c4)cc3C(=O)N([C@H](C)CO)C[C@@H]2C)c1
-5 | -13[16.7 µM] | O=C(N[C@H]1CC[C@@H](CCNS(=O)(=O)c2ccccc2)O[C@@H]1CO)c1cnccn1
2 | -20[16.7 µM] | COc1ccc(CN(C)C[C@H]2Oc3c(NS(=O)(=O)c4cccs4)cccc3C(=O)N([C@H](C)CO)C[C@@H]2C)cc1
-3 | 25[16.7 µM] | CC(C)NC(=O)N(C)C[C@@H]1Oc2cc(-c3cccnc3)ccc2S(=O)(=O)N([C@H](C)CO)C[C@@H]1C
4 | 0[16.7 µM] | CC(C)NC(=O)NCC[C@H]1CC[C@H](NS(=O)(=O)c2ccc(-c3ccccc3)cc2)[C@@H](CO)O1
-6 | 16[16.7 µM] | Cc1noc(C)c1NC(=O)N(C)C[C@H]1OCCCC[C@@H](C)Oc2ccc(NC(=O)Cc3ccccc3)cc2C(=O)N([C@H](C)CO)C[C@@H]1C
-10 | -1[16.7 µM] | C[C@H](CO)N1C[C@H](C)[C@H](CN(C)C)Oc2cc(C#CC3CC3)ccc2S1(=O)=O
-10 | 18[16.7 µM] | O=C(CN1CCOCC1)NCC[C@H]1CC[C@@H](NS(=O)(=O)c2ccc(Cl)cc2)[C@@H](CO)O1
3 | 36[16.7 µM] | COc1cccc(NC(=O)N(C)C[C@H]2Oc3cc(C#Cc4ccncc4)ccc3S(=O)(=O)N([C@@H](C)CO)C[C@@H]2C)c1
-9 | 0[16.7 µM] | C[C@@H]1CCCCO[C@@H](CN(C)C(=O)C2CCCCC2)[C@H](C)CN([C@H](C)CO)C(=O)c2cc(NS(=O)(=O)c3ccc(Cl)cc3)ccc2O1
17 | 18[16.7 µM] | C[C@@H]1CN([C@H](C)CO)S(=O)(=O)c2ccc(C#Cc3cccc(F)c3)cc2O[C@H]1CN(C)C(=O)CN1CCOCC1
-5 | -2[16.7 µM] | CN(C)CC(=O)Nc1ccc2c(c1)[C@H]1C[C@@H](CC(=O)NC3CCCC3)O[C@@H](CO)[C@H]1O2
-4 | 8[16.7 µM] | CCCNC(=O)N1C[C@H](O)COC[C@H]2O[C@@H](CC(=O)N[C@H]3CCN(Cc4ccccc4)C3)CC[C@@H]21
-7 | -27[16.7 µM] | COc1cccc(S(=O)(=O)Nc2ccc3c(c2)[C@@H]2C[C@H](CC(=O)O)O[C@@H](CO)[C@@H]2O3)c1
-13 | -7[16.7 µM] | Cc1ccc(S(=O)(=O)N[C@@H]2CC[C@@H](CCNC(=O)C3CC3)O[C@@H]2CO)cc1
11 | -90[16.7 µM] | C[C@H]1CCCCO[C@@H](CN(C)C(=O)C2CCCCC2)[C@@H](C)CN([C@@H](C)CO)C(=O)c2cc(NS(=O)(=O)c3ccccc3)ccc2O1

Pulled by compound from the list above:
Yeast UUG start | Env fusion inh | SMILES
-9 | 0[16.7 µM] | C[C@@H]1CCCCO[C@@H](CN(C)C(=O)C2CCCCC2)[C@H](C)CN([C@H](C)CO)C(=O)c2cc(NS(=O)(=O)c3ccc(Cl)cc3)ccc2O1
4 | 0[16.7 µM] | CC(C)NC(=O)NCC[C@H]1CC[C@H](NS(=O)(=O)c2ccc(-c3ccccc3)cc2)[C@@H](CO)O1
-10 | 18[16.7 µM] | O=C(CN1CCOCC1)NCC[C@H]1CC[C@@H](NS(=O)(=O)c2ccc(Cl)cc2)[C@@H](CO)O1
11 | -90[16.7 µM] | C[C@H]1CCCCO[C@@H](CN(C)C(=O)C2CCCCC2)[C@@H](C)CN([C@@H](C)CO)C(=O)c2cc(NS(=O)(=O)c3ccccc3)ccc2O1
-7 | -27[16.7 µM] | COc1cccc(S(=O)(=O)Nc2ccc3c(c2)[C@@H]2C[C@H](CC(=O)O)O[C@@H](CO)[C@@H]2O3)c1

(continued)
Yeast UUG start | Env fusion inh | SMILES
22 | 1[16.7 µM] | C[C@H](CO)N1C[C@H](C)[C@@H](CN(C)C(=O)Nc2ccc3c(c2)OCO3)Oc2cc(C#Cc3cccnc3)ccc2S1(=O)=O
37 | -23[16.7 µM] | C[C@H](O)C#Cc1cnc2c(c1)C(=O)N([C@H](C)CO)C[C@H](C)[C@@H](CN(C)C(=O)CC1CC1)O2
-2 | -14[16.7 µM] | CC(=O)N(C)C[C@H]1Oc2ncc(-c3ccc(F)cc3)cc2C(=O)N([C@H](C)CO)C[C@H]1C
3 | 25[16.7 µM] | COc1ccc(S(=O)(=O)Nc2ccc3c(c2)C(=O)N([C@@H](C)CO)C[C@H](C)[C@H](CN(C)C(=O)Nc2cccc4ccccc24)OCCCC[C@H](C)O3)cc1
8 | -10[16.7 µM] | COc1cccc(NC(=O)N(C)C[C@@H]2Oc3cc(C#Cc4ccc(F)cc4)ccc3S(=O)(=O)N([C@@H](C)CO)C[C@@H]2C)c1
-5 | 10[16.7 µM] | C[C@H](CO)N1C[C@H](C)[C@@H](CN(C)C(=O)c2ccccc2)Oc2ncc(-c3ccc(C#N)cc3)cc2C1=O
-14 | 17[16.7 µM] | C[C@@H]1CN([C@H](C)CO)C(=O)c2cc(NC(=O)Nc3cccc4ccccc34)ccc2O[C@@H](C)CCCCO[C@H]1CN(C)C(=O)C1CCCCC1
26 | 8[16.7 µM] | O=C(C[C@H]1C=C[C@@H](NC(=O)Nc2ccc(C(F)(F)F)cc2)[C@@H](CO)O1)NCc1cc(F)cc(F)c1
4 | -8[16.7 µM] | C[C@@H]1CN([C@H](C)CO)C(=O)c2cccc(NS(=O)(=O)c3cccs3)c2O[C@@H]1CN(C)S(=O)(=O)c1ccc(F)cc1
-1 | -1[16.7 µM] | C[C@@H]1CN([C@@H](C)CO)C(=O)c2cc(NC(=O)NC3CCCCC3)ccc2O[C@@H](C)CCCCO[C@H]1CN(C)C
-2 | 0[16.7 µM] | Cc1cc(C)cc(NC(=O)Nc2ccc3c(c2)C(=O)N(C)[C@@H]2CC[C@H](CC(=O)O)O[C@@H]2CO3)c1
29 | 14[16.7 µM] | C[C@@H]1CN([C@H](C)CO)S(=O)(=O)c2ccc(-c3ccncc3)cc2O[C@H]1CN(C)Cc1ccccn1
-6 | -150[16.7 µM] | Cn1cnc(S(=O)(=O)N[C@H]2C=C[C@@H](CC(=O)Nc3ccc(-c4ccccc4)cc3)O[C@@H]2CO)c1
-16 | -4[16.7 µM] | C[C@H]1CN([C@@H](C)CO)S(=O)(=O)c2ccc(-c3ccccc3)cc2O[C@@H]1CN(C)Cc1cncnc1
21 | -4[16.7 µM] | COc1ccc(S(=O)(=O)Nc2ccc3c(c2)C(=O)N([C@H](C)CO)C[C@@H](C)[C@@H](CN(C)C(=O)CCC(F)(F)F)OCCCC[C@@H](C)O3)cc1
-17 | -2[16.7 µM] | C[C@@H]1CN([C@H](C)CO)C(=O)c2cc(NS(=O)(=O)c3cccs3)ccc2O[C@@H](C)CCCCO[C@H]1CN(C)S(=O)(=O)c1ccc(F)cc1
-17 | 5[16.7 µM] | COc1cccc(NC(=O)N[C@@H]2C=C[C@H](CC(=O)NCc3ccccn3)O[C@@H]2CO)c1
-16 | -14[16.7 µM] | CO[C@H]1CN(C)C(=O)c2cc(NC(=O)c3ccccc3F)ccc2OC[C@H](C)N(C)C[C@H]1C
-4 | 75*[16.7 µM] | COc1ccccc1NC(=O)N[C@@H]1CC[C@H](CC(=O)N[C@H](C)c2ccccc2)O[C@@H]1CO
12 | -30[16.7 µM] | Cc1noc(C)c1NC(=O)Nc1ccc2c(c1)C(=O)N([C@H](C)CO)C[C@H](C)[C@@H](CN(C)S(C)(=O)=O)OCCCC[C@@H](C)O2
-4 | 9[16.7 µM] | Cc1cccc(S(=O)(=O)N[C@@H]2CC[C@@H](CCNC(=O)CCN3CCCCC3)O[C@@H]2CO)c1
10 | -6[16.7 µM] | C[C@@H]1CN([C@H](C)CO)C(=O)Cc2cc(NC(=O)Nc3cccc4ccccc34)ccc2O[C@H]1CN(C)Cc1ccccc1
24 | 16[16.7 µM] | Cc1ccc(S(=O)(=O)Nc2ccc3c(c2)C(=O)N([C@@H](C)CO)C[C@@H](C)[C@H](CN(C)C(=O)C2CCCCC2)OCCCC[C@@H](C)O3)cc1
11 | 5[16.7 µM] | O=C(Cc1ccccn1)NCC[C@@H]1CC[C@H](NS(=O)(=O)c2ccccc2)[C@@H](CO)O1
-2 | 10[16.7 µM] | C[C@@H]1CN([C@@H](C)CO)C(=O)c2cc(NC(=O)Nc3ccc(F)cc3)ccc2O[C@@H](C)CCCCO[C@@H]1CN(C)S(=O)(=O)c1cccs1
2 | 91*[16.7 µM] | COc1ccc(NC(=O)Nc2ccc3c(c2)C(=O)N([C@H](C)CO)C[C@H](C)[C@H](CN(C)Cc2ccc(Cl)c(Cl)c2)OCCCC[C@H](C)O3)cc1
8 | -3[16.7 µM] | COC(=O)C[C@H]1CC[C@@H]2[C@H](COc3ccc(NC(=O)NCc4ccccc4)cc3C(=O)N2C)O1
5 | -9[16.7 µM] | O=C(Nc1ccc2c(c1)[C@@H]1C[C@H](CC(=O)N3CCCCC3)O[C@@H](CO)[C@@H]1O2)c1ccc2c(c1)OCO2
20 | -8[16.7 µM] | CCC(=O)N(C)C[C@H]1Oc2cc(C#CCC(C)C)ccc2S(=O)(=O)N([C@H](C)CO)C[C@@H]1C
-7 | -15[16.7 µM] | C[C@@H]1CCCCO[C@H](CN(C)C(=O)Nc2ccc(C(F)(F)F)cc2)[C@@H](C)CN([C@H](C)CO)C(=O)c2cc(NS(=O)(=O)c3ccc(Cl)cc3)ccc2O1
8 | -10[16.7 µM] | CCCNC(=O)N(C)C[C@@H]1Oc2ncc(C#CCC(C)C)cc2C(=O)N([C@H](C)CO)C[C@@H]1C
7 | 1[16.7 µM] | C[C@@H]1CN([C@H](C)CO)C(=O)c2cc(-c3cccnc3)cnc2O[C@H]1CN(C)C(=O)Nc1ccc(C(F)(F)F)cc1
45 | 33[16.7 µM] | C[C@H]1CCCCO[C@@H](CN(C)C(=O)CCC(F)(F)F)[C@@H](C)CN([C@@H](C)CO)C(=O)c2cc(NC(=O)NC3CCCCC3)ccc2O1
-2 | -16[16.7 µM] | Cc1ccc(S(=O)(=O)Nc2ccc3c(c2)CC(=O)N([C@H](C)CO)C[C@H](C)[C@H](CN(C)C(=O)Nc2ccc4c(c2)OCO4)O3)cc1
16 | 20[16.7 µM] | C[C@@H]1CN([C@H](C)CO)C(=O)c2cccc(NS(=O)(=O)c3ccc(F)cc3)c2O[C@H]1CN(C)Cc1ccccc1
2 | -17[16.7 µM] | Cc1ccc(S(=O)(=O)NC2CCN(Cc3cccc(OCCO)c3)CC2)cc1
-1 | -2[16.7 µM] | O=C(C[C@H]1CC[C@@H](NC(=O)NC2CCCCC2)[C@@H](CO)O1)NCc1ccccc1
4 | -3[16.7 µM] | C[C@H](CO)N1C[C@H](C)[C@H](CN(C)C(=O)C2CC2)Oc2ncc(C#CC(C)(C)O)cc2C1=O
-7 | 2[16.7 µM] | C[C@@H]1CCCCO[C@@H](CN(C)C(=O)Nc2ccc(F)cc2)[C@@H](C)CN([C@H](C)CO)C(=O)c2cc(NS(=O)(=O)c3cccs3)ccc2O1
6 | -17[16.7 µM] | C[C@H]1CN([C@@H](C)CO)C(=O)Cc2cc(NS(=O)(=O)c3ccccc3)ccc2O[C@@H]1CN(C)C(=O)Nc1ccccc1
12 | 16[16.7 µM] | C[C@@H]1CN([C@H](C)CO)C(=O)c2cc(C#Cc3ccccc3)cnc2O[C@H]1CN(C)C(=O)c1ccccc1
18 | -30[16.7 µM] | COc1ccc(S(=O)(=O)Nc2ccc3c(c2)C(=O)N([C@@H](C)CO)C[C@H](C)[C@H](CN(C)C(=O)C2CCCCC2)OCCCC[C@@H](C)O3)cc1
11 | -4[16.7 µM] | C[C@H]1CN([C@@H](C)CO)C(=O)c2cccc(NC(=O)Nc3ccc(F)cc3)c2O[C@@H]1CN(C)S(C)(=O)=O
0 | -13[16.7 µM] | CCCN(C)C[C@@H]1OCCCC[C@H](C)Oc2ccc(N(C)C)cc2C(=O)N([C@H](C)CO)C[C@@H]1C
